HPGD block = qHTS Assay for Inhibitors of HPGD (15-Hydroxyprostaglandin Dehydrogenase) | 15-hydroxyprostaglandin dehydrogenase [NAD(+)] (Homo sapiens), P15428 | purified HPGD, NADH fluorescence kinetic, PGE2 substrate | Potency, µM, for inactives: top-dose activity change, negative = inhibition, usual class: inhibitors | hit rate 4.3% among 150,000 | AID 894, 2007; active = well fitted inhibition curve with a large enough effect (not every such curve was filed as active); inconclusive = small, poorly fitted or top-dose-only effect, or another doubt; inactive = no such curve, though single readings can be large or run the other way;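 note: top concentration of the series not given in the record; plate controls included wells without enzyme; inactives centre near -10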
Target sequence (P15428 whole entry, looked up): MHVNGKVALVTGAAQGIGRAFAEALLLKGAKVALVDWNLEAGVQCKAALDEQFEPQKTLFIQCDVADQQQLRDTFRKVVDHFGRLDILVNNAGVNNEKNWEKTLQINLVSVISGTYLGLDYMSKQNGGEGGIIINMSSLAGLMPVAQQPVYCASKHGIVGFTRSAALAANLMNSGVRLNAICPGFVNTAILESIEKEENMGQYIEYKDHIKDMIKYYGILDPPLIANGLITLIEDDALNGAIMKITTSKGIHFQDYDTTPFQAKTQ
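NADH formation kinetics: reaction with 30 uM PGE2 and 1 mM NAD+ (final), 20 nM enzyme, Tris-HCl pH 8 with Tween 20, after 15 min compound preincubation at room temperature. Fluorescence change, last versus first of five reads.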
An asterisk follows results filed as active; ? = inconclusive; & = joins results of further samples. % is set by controls: 0 for no effect and ±100 for the full control effect; potency is the fitted concentration of half-maximal effect. A portion of the library. The share of hits here may be higher or lower than overall.

SMILES,HPGD block
Cc1ccc(/C=C/C(=O)O)cc1S(=O)(=O)N(CCO)CCO,-2.0%
c1ccc2oc(C3=NNC(=NC4CC4)SC3)cc2c1,?
Cn1cccc1CNCc1ccc(F)cc1,-6.4%
O=C(COC(=O)/C=C/c1cccc(C(F)(F)F)c1)NCc1ccccc1,-8.5%
O=C(C1CCCN(CCCc2ccccc2)C1)N1CCCCCC1 (configuration not stated),-10.6%
CCOCCCNC(=O)C(NC(=O)c1ccc(NC(C)=O)cc1)c1ccc(C)cc1 (configuration not stated),-6.3%
COc1ccc(CNC(=O)C(C)Cc2ccccc2)cc1O (configuration not stated),-12.7%&-19.8%
CC(=O)Nc1cccc(NC(=O)CCn2c(=O)sc3ccccc32)c1,-5.6%
OC[C@@H]1[C@@H](c2ccccc2)C(c2ccccc2)=NN1c1ccccc1,?
CCc1ccc(CCC(=O)Nc2nc(CC(C)=O)ns2)o1,-18.7%
COc1ccc(/C(O)=C(\C#N)c2nc3ccccc3n2C)cc1OC,-9.7%
Cc1ccc(OCc2nn3c(-c4n[nH]c5c4CCC5)nnc3s2)cc1,-4.2%
O=C(NCCSc1c[nH]c2ccccc12)c1ccc(Br)o1,7.08µM*
Cc1ccc(NS(=O)(=O)c2cccc(C(=O)N3CCOCC3)c2)cc1,-8.8%
CCOC(=O)/C=C1\SCC(=O)N1CC(=O)NCc1cccc(Cl)c1,-22.6%
Cn1c(=O)c2ncn(CC(=O)NCCOCc3ccccc3Cl)c2n(C)c1=O,-12.0%
Cc1ccc(N(CC(=O)NCc2ccncc2)S(C)(=O)=O)cc1,-14.8%
O=C(CCCOc1ccccc1)Nc1nnc(C2CCCO2)s1 (configuration not stated),-12.8%
CN(Cc1ccccc1)C(=O)c1cc(-c2ccc(Br)cc2)on1,-20.6%
Cc1cc(C)nc(NS(=O)(=O)c2ccc(N=Cc3c(C)[nH]n(-c4ccccc4)c3=O)cc2)n1,-18.7%
Cc1ccc(NC(NC(=O)OCCn2c([N+](=O)[O-])cnc2C)C(Cl)(Cl)Cl)cc1 (configuration not stated),-1.9%
c1ccc(Cn2nnc3c(N4CCN(Cc5ccc6c(c5)OCO6)CC4)ncnc32)cc1,?
Cc1cc(C)cc(NC(=S)NCCc2c[nH]c3ccccc23)c1,-7.4%
NCc1ccc(S(N)(=O)=O)cc1,-12.7%&-4.7%&-10.0%
CCCCn1nc2cc(C(=O)NC3CCCc4ccccc43)ccc2c1OCC (configuration not stated),?
CCc1cc2c(=O)c(-c3nc4ccccc4n3C)c(C)oc2c(CN2CCN(CCO)CC2)c1O,?
c1ccc(C2CCC(N3CCC(N4CCCCC4)CC3)CC2)cc1 (configuration not stated),-0.9%
CCCCOc1c(Cl)cc(CNC(C)(C)CO)cc1OCC,1.4%
O=C(N/N=C/c1cccc(OC(=O)N2CCOCC2)c1)c1cccs1,-9.1%
CCCc1nn(-c2ccccc2)c2c1C(c1cccs1)C(C#N)=C(N)O2 (configuration not stated),-17.5%
O=C1CC(c2ccc(Cl)cc2)n2nc(NS(=O)(=O)c3ccc(F)cc3)nc2N1 (configuration not stated),-9.7%
CC(C)(C)C(=O)Nc1cccc(-c2nc3ccccc3[nH]2)c1,-23.0%
COc1cc(NC(=O)CSc2nc(C)cs2)cc(OC)c1,-12.2%
O=C(Nc1ncn[nH]1)c1ccccc1Br,3.2%
O=C(COc1ccc(Cl)cc1)N1CCCCC1,25.1µM*
Cc1ccc(NC(=O)CN(C)CC(=O)Nc2ccc(N3CCOCC3)cc2)c(C)c1,-11.2%
COCCn1cc(C(=S)N2CCOCC2)c2ccccc21,-14.3%
O=C(NCCc1ccncc1)C(F)(F)F,-9.8%
O=C(CCCOc1ccccc1)Nc1ccncc1,-3.9%
O=C(CCS(=O)(=O)c1cccc2nonc12)N1CCN(c2ccc(F)cc2)CC1,-12.2%
N/C(=N\OC(=O)CSc1ccccc1)c1ccc([N+](=O)[O-])cc1,-6.9%
Cc1cc(C)nc(N/N=C/c2ccco2)n1,-2.9%
CCc1ccc(S(=O)(=O)N(C(=O)c2ccncc2)c2ccc(OC(=O)c3ccncc3)cc2)cc1,-25.4%
CC(c1ccccc1)N1CCn2c(nc3cc(NC(=O)NC4CCCCC4)ccc32)C1 (configuration not stated),?
Cc1cc(C)c(S(=O)(=O)Nc2cccc(C(F)(F)F)c2)c(C)c1,-4.2%
COc1ccc(N(C(=O)COc2cccc(C)c2)S(=O)(=O)c2ccc(C)cc2)cc1,-26.9%
CCOC(=O)N1CCC(NC(=O)Cn2cccc2C(=O)c2ccccc2C)CC1,-3.2%
CCn1c2ccccc2c2cc(/C=N/n3cn[nH]c3=S)ccc21,15.8µM*
O=C1c2cccc3cccc(c23)C(=O)N1CCN1CCN(C(=S)Nc2ccc(Cl)cc2)CC1,-12.2%
CCN(CC)CCn1nc(C)nc1-c1ccccc1O,-5.3%

Further compounds follow:
SMILES,HPGD block
Cc1nc2c(C)cccc2cc1C(=O)N/N=C/c1ccc(O)cc1,-14.2%
O=C(CCc1nc(-c2ccccc2)no1)NCCc1ccccc1,-23.6%
O=C(CN(Cc1ccccc1)C(=O)c1cc2c(s1)CCC2)NCc1cccs1,-1.3%
Nc1c(C(=O)Nc2ccc(Br)cc2)sc2nc(-c3ccco3)ccc12,?
O=C(NN=C1CCN(Cc2ccccc2)CC1)c1cc2ccccc2cc1O,-14.1%
O=S(=O)(/N=C(\Sc1ccccc1)c1ccccc1)c1ccc(Cl)cc1,-20.9%
CCOC(=S)SCC(=O)Nc1nc(-c2ccccc2)cs1,-4.6%
Cc1cccc(OCC(=O)O/N=C(\N)Cc2cccs2)c1,-14.8%
COc1ccc(/C=N/n2c(N)nc3ccccc32)cc1OC,-13.9%
CCn1c(SCC(=O)Nc2ccccc2C(=O)OC)nc2c1c(=O)n(C)c(=O)n2C,1.3%
C=CS(=O)(=O)c1ccc(Oc2ccc(S(=O)(=O)C=C)cc2)cc1,-20.0%
Cn1c(SCc2ccon2)nc2ccccc2c1=O,-4.0%
CCOC(=O)c1cccc(NC(=O)C(C)N2C(=O)c3ccccc3C2=O)c1 (configuration not stated),-12.7%
CCOc1ccc(-c2nc(CSc3nnc(N)s3)cs2)cc1,-19.6%
CCN1CC2=C(OC(N)=C(C#N)C2c2ccccc2)/C(=C\c2ccccc2)C1 (configuration not stated),-29.8%
Cn1c(SCC(=O)N/N=C/C=C/c2ccco2)nc2ccccc21,-25.1%
Cc1ccccc1OCC(=O)NNC(=S)NC(=O)c1ccccc1[N+](=O)[O-],-1.5%
COc1ccc(CCNC(=O)C(=O)NCC2CCCO2)cc1 (configuration not stated),2.7%
CC(C)c1nc(-c2ccccn2)no1,-6.7%
CC(C)(C)c1ccc(C(=O)NNC(=O)Cc2cccc3ccccc23)cc1,?
O=C(COc1nsnc1N1CCOCC1)N/N=C/c1ccccc1O,?
CCOc1ccc(N(CC(=O)O)S(=O)(=O)c2cccnc2)cc1,-1.0%
S=c1nc(-c2ccccc2Cl)n(Cc2cccnc2)c2c1CCCC2,-4.4%
c1ccc2c(c1)CCN(c1ncnc3c1[nH]c1ccccc13)C2,-18.9%
O=C(NC1CCCC1)c1ccc(CS(=O)(=O)c2ccc(Br)cc2)o1,-7.4%

Ordered by the number under HPGD block (ascending): some entries from above.
SMILES,HPGD block
Cn1c(SCC(=O)N/N=C/C=C/c2ccco2)nc2ccccc21,-25.1%
O=S(=O)(/N=C(\Sc1ccccc1)c1ccccc1)c1ccc(Cl)cc1,-20.9%
COc1ccc(/C=N/n2c(N)nc3ccccc32)cc1OC,-13.9%
CCOC(=O)c1cccc(NC(=O)C(C)N2C(=O)c3ccccc3C2=O)c1 (configuration not stated),-12.7%
CC(C)c1nc(-c2ccccn2)no1,-6.7%
COc1ccc(CCNC(=O)C(=O)NCC2CCCO2)cc1 (configuration not stated),2.7%

In another format: results already given
CCc1cc2c(=O)c(-c3nc4ccccc4n3C)c(C)oc2c(CN2CCN(CCO)CC2)c1O
  HPGD block: ?
c1ccc(C2CCC(N3CCC(N4CCCCC4)CC3)CC2)cc1 (configuration not stated)
  HPGD block: -0.9%

Next part.
SMILES,HPGD block
CCn1cc(/C=N/NS(=O)(=O)c2ccc(OC)cc2)c(C)n1,-25.4%
CC(C)Cn1c(SC(C)C(=O)Nc2ccc3c(c2)OCCO3)nc2ccccc2c1=O (configuration not stated),-14.3%
Cc1ccc(-c2cc(C(F)F)n3ncc(C(=O)N4CCN(c5cccc(C)c5C)CC4)c3n2)cc1,-22.3%
CCOc1cccc(CNCCO)c1OCc1ccc(Cl)cc1,6.6%
O=c1c2cc(O)c(O)cc2oc2cc(O)c(C3OC(CO)C(O)C(O)C3O)c(O)c12 (configuration not stated),?
COCCCn1[nH]c2c3c(ccc2c1=O)C(=O)c1ccccc1C3=O,-20.8%
c1cncc(-c2noc(-c3cccc4ccccc34)n2)c1,?
COc1ccc(-c2cc(-c3c(O)c(OC)c4occc4c3OC)[nH]n2)cc1,-14.5%
CCc1nc(C)ccc1OCC(=O)N(CC)CC,-11.0%
N#Cc1cc2ccccc2nc1SCc1ccccn1,25.1µM*
Oc1cnc2ccccc2c1CN1CCOCC1,?
O=C(CNc1cccc2ccccc12)N/N=C/c1cccc(Oc2ccccc2)c1,-12.5%
CCN(C(=O)c1cc(Cl)ccc1OC)c1ccccc1C,4.8%
O=C(CSc1nnc(NC(=O)c2ccco2)s1)NC1CCCC1,-12.0%
COc1ccccc1CNC(=O)COC(=O)Cc1c(Cl)cccc1Cl,-22.6%
O=C(Cn1c2c(sc1=O)C1c3ccccc3OCC1CS2)Nc1ccc(Cl)c(Cl)c1 (configuration not stated),-15.2%
CCc1ccccc1NC(=O)N1C2CCCC1CC(NC(=O)C(C)(C)C)C2 (configuration not stated),-12.1%
COc1ccccc1N1CCN(C(=O)Oc2ccccc2)CC1,-17.6%
Cc1noc(NS(=O)(=O)c2ccc(NC(=O)CSc3nc4c(cc3C#N)CCCCC4)cc2)c1C,28.2µM*
c1ccc(CCn2nnnc2CN2CCN(C3CCCC3)CC2)cc1,-17.8%
COc1ccc(-c2oc3ncn4nc(Cc5ccccc5)nc4c3c2-c2ccc(OC)cc2)cc1,?
CCOc1ccc(OCC)c(NC(=O)C2CCN(c3nn4c(=O)cc(C)nc4s3)CC2)c1,-8.6%
CCOC(=O)Cc1csc(/C(=N/O)C(N)=O)n1,-12.3%
COc1ccc(NC(=O)C2CCCCN2S(=O)(=O)c2ccc(F)cc2)c(OC)c1 (configuration not stated),-6.4%
CSCCC(NS(=O)(=O)c1cccs1)C(=O)NCc1ccc(C)cc1 (configuration not stated),-0.9%
COc1ccc(CC(=O)Nc2ccc(/C(C)=N/NC(=O)c3cccc([N+](=O)[O-])c3)cc2)cc1,-7.0%
COC(=O)c1ccccc1NC(=O)CNc1cc(OC)c(OC)cc1C,-15.2%
CC1CCCN(Cc2nc3c(c(=O)n(C)c(=O)n3C)n2CCc2ccccc2)C1 (configuration not stated),6.8%
COc1cc(CC(=O)OCC(=O)Nc2ncc(Cl)cc2Cl)cc(OC)c1OC,-3.1%
CC(=O)/C(=N\Nc1ccccc1Cl)Sc1nnc(-c2ccccc2)n1-c1ccccc1,-29.7%
O=C(NCc1ccco1)c1ccc(NC(=O)C2COc3ccccc3O2)cc1 (configuration not stated),-27.8%
CN(C)CCNC(=O)/C(=C/c1ccc(-c2cccc([N+](=O)[O-])c2)o1)NC(=O)c1ccccc1,-14.3%
CC(=O)c1cccc(NC(=O)C2C3C=CC(C4CC34)C2C(=O)O)c1 (configuration not stated),-28.2%
CCCCc1ccc(NC(=O)C2CCN(S(C)(=O)=O)CC2)cc1,-1.1%
CCCCn1c(=O)n(CC(O)c2ccccc2)c(=O)c2c1ncn2C1CCCC1 (configuration not stated),-0.2%
COc1ccc(C)cc1N(CC(=O)NC1CCCC1)C(=O)CCC(=O)Nc1cc(C)on1,-0.8%
O=c1c2ccccc2nc(-c2ccc(Cl)cc2Cl)n1CCCn1ccnc1,1.2%
O=C(NCCc1ccc(O)cc1)c1ccc(Cl)cc1,-2.2%
O=C(O)C1CC(=O)N(CCC23CC4CC(CC(C4)C2)C3)C(=Nc2ccccc2)S1 (configuration not stated),-16.2%
O=C(Cc1ccccc1)NNS(=O)(=O)c1ccc([N+](=O)[O-])cc1,-13.6%
NC(N)=NN=Cc1c(Cl)cccc1Cl,-2.8%&-11.4%
COc1ccc(NC(=S)NCCCc2ccccc2)cc1,-2.5%
O=c1cc(N2CCN(Cc3ccccc3)CC2)c(-c2ccccc2)n[nH]1,8.2%
Cc1c(C(=O)NCC2CCCO2)sc2nc(-c3ccc(F)cc3)cn12 (configuration not stated),-28.5%
O=C(NCc1cccnc1)C1c2ccccc2C(=O)N1Cc1ccccc1 (configuration not stated),1.6%
C=CCNC(=O)C(=O)NN=C1CCN(C)CC1,-1.9%
COc1ccc(CCNC(=O)CSc2nc(O)c(CCC(C)C)c(=O)[nH]2)cc1OC,-2.2%
O=C(Nc1nc(-c2cccs2)cs1)c1ccc(S(=O)(=O)N2CCCCC2)cc1,?
